MgrA DNA FP = S. aureus MgrA-DNA binding modulation. fluorescence polarization. inhibition, %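 (about 10 µg/mL by stock and volumes)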. actives 0.13% (n = 84,000). AID 602314;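 active = above 50% in either of two replicates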;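 note: 0% = protein plus DNA without compound and 100% = DNA alone without protein; higher means less MgrA bound to DNA so lower polarization; one replicate is shown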
S aureus helic = blocks Staphylococcus aureus DNA helicase; purified S. aureus helicase, fluorescence unwinding assay; about half of the hits fall short of the stated cut; inhibition, %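 (tested at about 80 µM)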; actives 0.05% (n = 120,000);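 active = both duplicates at 50% or more, or one of them with a favoured structure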;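 note: 0% = mean of negative control wells and 100% = mean of positive control wells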
* hit, by the source's call; i = inactive; · = not tested or not shown; & = joins results of further samples.

SMILES	MgrA DNA FP	S aureus helic
CCn1cc(C(=O)O)c(=O)c2cc(F)c(N3CCNCC3)cc21	-1.6&3.3	·
CCOC(=O)C(c1ccccc1)C(Nc1ccc(Cl)c(Cl)c1)c1ccccn1 (configuration not stated)	-2.1	·
CC(=O)Nc1sc(C)c(C)c1C(=O)OCC(=O)c1cc(C)n(-c2ccc3c(c2)OCCO3)c1C	·	-11.0
Cc1[nH]c2ccccc2c1C(Nc1ccccc1)c1ccccn1 (configuration not stated)	10.1	19.0
COC(=O)NC(=S)Nc1ccc(Oc2ccc(Cl)cc2Cl)cc1	1.9	-1.0
O=c1[nH]nc(SCc2ccccc2)c(=S)[nH]1	-0.4	7.0
O=C(Nc1ccccc1)c1ccccc1SCC(=O)N1CCCC1	·	6.0
Nc1nc(-c2ccc3c(c2)OCCCO3)cc(C(F)(F)F)n1	-2.2	·
CCOc1cc(/C=C2\SC(=S)N(C(C)C(=O)O)C2=O)ccc1O (configuration not stated)	·	-45.0
Cc1cn2c3ccccc3nc2n1CCCO	0.4	10.0
NNC(=O)c1ccc(CSc2n[nH]c(=O)[nH]c2=O)cc1	·	20.0
CCOC(=O)C1CC(O)CN1 (configuration not stated)	-3.1	-4.0
COc1ccccc1/C=N/NC1=NCCCCC1	·	2.0
COc1ccccc1NC(=S)NCCc1ccc(OC)c(OC)c1	2.5	·
C=CCN(CC=C)C(=O)c1ccc(C)s1	-1.0	8.0
O=C(O)c1cc(-c2ccco2)nc2ccc(Br)cc12	39.1	5.0
O=C(N1CCCCC1)N1CCC(c2nc3ccccc3[nH]2)CC1	-1.4	2.0
O=C(CC1SC(Cc2ccccc2Cl)=NC1=O)Nc1ccccc1 (configuration not stated)	-0.3	·
O=C(NCc1cccs1)C1CCCN(S(=O)(=O)c2cccnc2)C1 (configuration not stated)	0.8	2.0
CN(C)Cn1c(O)c(N=NC(=O)c2ccccc2)c2ccccc21	-7.6	0.0
O=C(CCC(=O)c1ccc(F)cc1)c1ccc(F)cc1	-0.1	·
Cc1ccc(Cl)cc1N1CCN(C(=O)c2cc3c(=O)[nH]c4ccccc4c3n2C)CC1	·	-14.0
CCOC(=O)c1c(NC(=O)Cc2ccc(Cl)cc2)sc(C(=O)Nc2cccc(OC)c2)c1C	3.9	·
Cc1cccc(N(CC(=O)Nc2cccnc2)S(C)(=O)=O)c1C	·	2.0
C=CCn1c(CC(=O)Nc2cccc(OC)c2)nnc1SCC(=O)NC1CCCCC1	2.5	9.0
Cc1cc2cc(CNC(=O)CCCc3ccccc3)ccc2[nH]1	·	12.0
CCOC(=O)Cc1cn2ccsc2n1	-1.3	0.0
CC(C)=C1N=C(c2cccs2)OC1=O	-3.1	7.0
O=C(O)c1c(F)cccc1I	-2.0	·
CN(C)c1ccc(/C=C2\CCC(=C3CCCC3)C2=O)cc1	·	i
O=c1oc(-c2ccco2)nc2ccccc12	7.4	17.0
NC(=O)N/N=C/c1cc(F)cc(F)c1	2.8	·
O=C(Nc1ccc(Cl)c(Cl)c1)OCc1ccco1	0.9	6.0
Cc1nc(-c2ncc(-c3ccccc3)o2)c(C(F)(F)F)o1	-3.0	·
c1ccc(CSc2nnc(SCc3ccccn3)s2)nc1	0.0	-2.0
C=CCn1c(SCC(=O)Nc2cccc(OC)c2)nnc1C(C)NC(=O)c1ccccc1 (configuration not stated)	1.8	4.0
CC1C(=O)C(C)C(c2cccs2)NC1c1cccs1 (configuration not stated)	·	12.0
NC(=O)C1CCCN(C(=S)NCc2ccc3c(c2)OCO3)C1 (configuration not stated)	·	-19.0
Cc1ccc(C)c(Cn2c(=O)n(CCCC(=O)NCc3ccccc3Cl)c(=O)c3ccccc32)c1	-0.9	4.0
CCC1C2=C(CC(C)(C)CC2=O)Nc2c1c(C)nn2-c1ccccc1 (configuration not stated)	-1.4	·
CS(=O)(=O)c1ccc2nc(NC(=O)C3CCCC3)sc2c1	·	-6.0
COc1ccc(CCN(C)C2CCNCC2)cc1OC	0.1	9.0
CCCSC(=S)c1c(C)[nH]n(-c2ccc(C)cc2)c1=O	-0.1	·
CSc1ncnc2c1cnn2-c1ccccc1	·	-3.0
O=C(OCC(=O)c1cc2c3c(c1)CC(=O)N3CCC2)C1=COCCO1	·	6.0
Cc1c(C(=O)N(C)Cc2ccccc2)sc2nc3n(c(=O)c12)CCCC3	·	-3.0
CCOC(=O)C1=C(C)N=c2s/c(=C\c3ccc(OC)cc3OC)c(=O)n2C1c1ccc(OC)c(OC)c1 (configuration not stated)	0.1	·
CC(O)CNCc1ccc(-c2ccccc2)o1 (configuration not stated)	-0.4	0.0
Cn1cc(NC(=O)Nc2ccc(S(=O)(=O)N3CCCCC3)cc2)c2ccccc2c1=O	·	-28.0
Cc1cccc(C)c1OCc1nnc(CCc2ccccc2)o1	0.0	13.0
COc1ccc(OC)c(NC(=O)Cn2cc(C(=O)c3ccco3)c3ccccc32)c1	·	0.0
COc1cccc(-n2cc(C(=O)N3CCC(C)CC3)c3ccccc3c2=O)c1	·	-3.0
O=C(N/N=C/c1ccccc1)C(O)c1ccccc1 (configuration not stated)	0.3	-3.0
C=CCSc1ncnc2c1sc1nc(N3CCOCC3)c3c(c12)CCCC3	-0.9	10.0
COc1cc(OC)cc(-n2c(=O)[nH]c3cc(C(=O)O)ccc3c2=O)c1	·	-8.0
CS/C(=N\S(=O)(=O)c1ccccc1)Nc1c(C)nn(C)c1C	0.7	·
COc1nc2c(s1)C(=O)NCCC2	·	-4.0
O=c1c(=O)n(-c2ccc3c(c2)OCO3)ccn1Cc1ccc(F)cc1Cl	·	-1.0
COc1ccc(Oc2ccc(C(F)(F)F)c(NC(=O)C3CCC3C(=O)O)c2)cc1 (configuration not stated)	-4.0	·
COC1=CC(=O)C[C@@H](C)[C@]12Oc1c(Cl)c(OC)cc(OC)c1C2=O	2.0	·

Overlap with the part before: three entries, followed by the next part.
SMILES	MgrA DNA FP	S aureus helic
O=c1c(=O)n(-c2ccc3c(c2)OCO3)ccn1Cc1ccc(F)cc1Cl	·	-1.0
COc1ccc(Oc2ccc(C(F)(F)F)c(NC(=O)C3CCC3C(=O)O)c2)cc1 (configuration not stated)	-4.0	·
COC1=CC(=O)C[C@@H](C)[C@]12Oc1c(Cl)c(OC)cc(OC)c1C2=O	2.0	·
Nc1c(Cl)cnn(-c2ccccc2)c1=O	1.2	-2.0
CCOC(=O)C1CCCN(CCC(=O)Nc2cc(C)ccc2C)C1 (configuration not stated)	·	-10.0
CCN(C(=O)c1cccc(OC)c1)C1CCS(=O)(=O)C1 (configuration not stated)	·	4.0
COc1ccc2c(c1)c(-c1csc(N)n1)c(C)n2C	-3.5	-3.0
O=c1cc(-n2ccc(C(F)(F)F)n2)oc2ccccc12	-2.7	·
CNC(=S)NNC(=O)c1cccs1	3.7	·
COc1ccc(C(=O)CN2CCN(C(=O)CC(C)C)CC2)cc1	-0.6	11.0
CCCN1C(=O)c2cc(C(=O)NCc3cccs3)ccc2C1O (configuration not stated)	-2.2	17.0
CC(C)=C1C2CC2C2C(C(=O)O)C12 (configuration not stated)	·	6.0
CCN1OCN(c2nc(N(C)C)nc(N(C)C)n2)C1=N	-0.3	7.0
N/C(CN1CCCCC1)=N\O	6.1	·
CCOC(=O)c1c(CN2CCN(c3ccccc3)CC2)oc2cc(Br)c(OC(C)=O)cc12	·	-13.0
Cc1cc(C)nc(Nc2n[nH]c(-c3cccnc3)n2)n1	4.7	30.0
Cn1c(C2CC(=O)N(c3ccccc3)C2)nc2ccccc21 (configuration not stated)	·	12.0
Cc1cnc(NC(=O)CSCc2nc3scc(-c4cccs4)c3c(=O)[nH]2)s1	·	-21.0
CC(C)(C)c1csc(CS(=O)(=O)c2ccccn2)n1	-3.8	·
COC(=O)c1ccc(CSc2nnc3c4ccccc4n(C)c3n2)cc1	-2.6	4.0
O=C(CC(C(=O)O)N1CCN(c2cccc(Cl)c2)CC1)c1ccc(C2CCCCC2)cc1 (configuration not stated)	18.1	11.0
C#CCSc1nc2ccccc2[nH]1	·	8.0
Cc1nnc(Nc2ccc(N3CCCCC3)cc2)[nH]c1=O	1.2	13.0
Cc1nnc(SC(C)C(=O)Nc2ccc(Cl)cn2)s1 (configuration not stated)	·	-8.0
O=C(OCC(=O)N1CCCC1)c1cn(-c2ccccc2)nc1-c1ccccc1	-0.6	-22.0
COc1ccc(CN2CCCN(S(=O)(=O)c3ccc(Br)cc3)CC2)cc1	·	36.0
CCN1C(=O)C(Cc2nc3ccccc3c(=O)[nH]2)c2ccccc21 (configuration not stated)	·	10.0
CCOC(=O)c1sc(N)c(C#N)c1CSc1nc2ccc(OCC)cc2[nH]1	·	-9.0
CC1(C)OC(c2ccccc2)=C/C(=C/C=C(C#N)C#N)O1	·	-89.0
Cc1c(Cl)cccc1NC1=CC(=O)CCC1	0.1	1.0
N#Cc1ccc(NC(=O)c2cc3cc4c5c(c3oc2=N)CCCN5CCC4)cc1	13.1	-360.0
Oc1ccc(-c2nc(-c3cccs3)c(-c3cccs3)[nH]2)cc1	·	22.0
Cc1cc(C)n(-c2nncc(-c3ccccc3)n2)n1	0.1	11.0
O=C(OC1OCCOC1OC(=O)C1CCCCC1)C1CCCCC1 (configuration not stated)	2.3	-3.0
C1CCN(c2nn[nH]n2)CC1	-3.1	·
COC(=O)c1c(C)[nH]c(C)c1/C=N/OC(=O)c1ccco1	·	-10.0
CCCn1cnc2cc(NCc3ccncc3)ccc21	0.9	10.0
COC(=O)c1ccc(Oc2c(F)c(F)nc(F)c2F)cc1	·	2.0
N#CCN(CC#N)C(=O)N1CCOCC1	0.6	-5.0
O=C(NCCCn1ccnc1)c1cc2nc3c(c(C(F)(F)F)n2n1)CCc1ccccc1-3	0.5	·
O=c1cc(N2CCCCC2)nc2n1CCCS2	-1.5	3.0
CN(C)C(=O)CSc1nnc(-c2cccnc2)n1-c1ccccc1	0.9	1.0
CCN(C(=O)CSc1nc2ccccc2o1)c1ccccc1	0.3	-7.0
O=C(Cn1cnc2sc3c(c2c1=O)CCCC3)NCc1ccccc1	-0.2	-4.0
Cn1ccnc1SCC(=O)Nc1ccc(C2CCCCC2)cc1	-2.0	·
O=C(c1ccc2ncsc2c1)N1CCCC1c1cccs1 (configuration not stated)	·	7.0
CCOC(=O)c1nn(-c2ccc(Cl)cc2Cl)c(=N)c(C#N)c1C	·	-141.0
CCCN1CCN(Cc2ccc(OCC(=O)Nc3ccc(Br)cc3)c(OC)c2)CC1	·	-11.0

Four entries from above in another layout:
MgrA DNA FP | S aureus helic | compound
-1.6&3.3 | · | CCn1cc(C(=O)O)c(=O)c2cc(F)c(N3CCNCC3)cc21
-2.1 | · | CCOC(=O)C(c1ccccc1)C(Nc1ccc(Cl)c(Cl)c1)c1ccccn1 (configuration not stated)
· | -11.0 | CC(=O)Nc1sc(C)c(C)c1C(=O)OCC(=O)c1cc(C)n(-c2ccc3c(c2)OCCO3)c1C
10.1 | 19.0 | Cc1[nH]c2ccccc2c1C(Nc1ccccc1)c1ccccn1 (configuration not stated)

Next structures:
SMILES	MgrA DNA FP	S aureus helic
N#CCC(=O)NCc1ccncc1	·	-1.0
O=C(O)c1ccccc1S(=O)(=O)N1CCCCC1	·	9.0
O=S1(=O)C=C(SCCN2CCOCC2)c2ccccc21	1.7	7.0
O=C(CSc1nnc(C2CC2)n1Cc1ccco1)c1cccc(Cl)c1	·	3.0
CC1(C)CC(C(=O)Nc2nccs2)CCO1 (configuration not stated)	·	5.0
COC(=O)CC1COc2ccccc2N1C(=O)/C=C/c1ccccc1 (configuration not stated)	-2.3	·
Cc1ccccc1NC(=O)C(C)N(c1ccccc1)S(C)(=O)=O (configuration not stated)	·	0.0
Cn1nc(NC(=O)CC(C)(C)CC(=O)O)c2ccccc21	0.8	·
COc1ccc(N/C=C(\C#N)C(N)=S)cc1	2.8	·
O=C(NCc1cccnc1)c1cccn2c(=O)c3ccc(Cl)cc3nc12	·	1.0
N#CCSc1nc2c(n1-c1ccccc1)CCCC2	·	-21.0
O=C(COCc1cc(-c2ccco2)on1)N1CCc2ccccc2C1	·	6.0
CC1CCCCC1NC(=O)Cn1ccc2ccccc21 (configuration not stated)	·	-4.0
CCc1ccn2cc(Nc3ccccc3Cl)nc2c1	-2.5	·
Cc1onc(-c2c(Cl)cccc2Cl)c1C(=O)n1c(C)nc2ccccc21	-1.2	-1.0
CN(C)C=NC(=S)c1sccc1CSc1ccc(Cl)cc1	-0.4	·
COC(=O)c1[nH]c(=O)c2ccccc2c1OCc1ccccc1	·	2.0
Cn1c2ccccc2c2cc(CC(N)=O)ccc21	2.0	9.0
CC(C)c1nn(-c2ccc(C(F)(F)F)cn2)c(=O)o1	·	-11.0
CC(C)CCn1c(=O)c2ccccc2n2c(CN(C)CCOc3ccc(Cl)cc3)nnc12	·	4.0
Oc1ccc(COCc2ccccc2)c2cccnc12	4.0	8.0
CC(C)(O)C#Cc1ccc(C(=O)NCCC(=O)O)s1	0.2	-4.0
COc1ccc(-c2cc(C(F)(F)F)nc(SCC(=O)NN3CCN(C)CC3)n2)cc1	-0.7	0.0
CCOC(=O)C1=C(C)Nc2c(C(=O)Nc3ccc(OCC)cc3)cnn2C1c1cc(OC)ccc1OC (configuration not stated)	·	-4.0
O=C(N/N=C/c1ccncc1)C1CC1C(=O)N/N=C/c1ccncc1 (configuration not stated)	-2.1	19.0
CN(C)S(=O)(=O)c1ccc(C(=O)Nc2c(C#N)oc3ccccc23)cc1	·	-10.0
COc1ccc(CCN(C)C(=O)COc2nncc3ccccc23)cc1OC	·	-11.0

This is a subset (hit frequency here may not be typical).
